Source: PubChem BioAssay
OX1R FRET antag: antagonists of human orexin 1 receptor (OX1R) | Orexin/Hypocretin receptor type 1 (Homo sapiens), O43613 | OX1R-expressing cells, FRET antagonist read-out | inhibition, % at 6.6 µM | actives 1.8% (n = 330,000) | AID 485270, 2010; in the data active = inhibition mostly above about 38%, no sharp cut-off; inactive = mostly below about 40%;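 also: 0% = agonist challenge alone and 100% = reference antagonist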
Target sequence (O43613 whole entry, looked up): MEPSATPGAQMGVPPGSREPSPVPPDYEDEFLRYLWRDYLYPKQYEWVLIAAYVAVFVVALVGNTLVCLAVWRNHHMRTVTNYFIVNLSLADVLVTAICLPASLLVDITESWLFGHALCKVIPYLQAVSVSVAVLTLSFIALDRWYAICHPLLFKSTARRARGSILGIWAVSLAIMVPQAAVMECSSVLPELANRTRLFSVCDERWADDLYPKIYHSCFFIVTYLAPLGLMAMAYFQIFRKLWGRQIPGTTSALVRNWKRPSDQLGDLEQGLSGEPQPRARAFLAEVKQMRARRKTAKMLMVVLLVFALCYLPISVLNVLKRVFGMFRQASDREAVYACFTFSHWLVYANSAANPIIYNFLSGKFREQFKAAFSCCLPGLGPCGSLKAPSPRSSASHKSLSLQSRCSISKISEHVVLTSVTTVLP
Starred values were filed as active, the others as inactive. The list is partial; most or all hits stand in other tables.

smiles	OX1R FRET antag
COc1cc(C2=NOC(C(=O)N3CCN(c4ccc(F)cc4)CC3)C2)cc(OC)c1OC (stereo not drawn)	11.0
COc1ccc(Cc2nc3ccc(C(=O)NCc4ncc(C)[nH]4)cc3o2)cc1OC	3.9
COC(=O)Nc1ccc(S(=O)(=O)N2CCC(C(=O)N3CCCCC3C)CC2)cc1 (stereo not drawn)	29.0
O=C(NC1=NCCS1)c1ccc(OCC2CCCO2)cc1 (stereo not drawn)	14.6
Cc1ccc(NC(=S)N(CCCN2CCC(C)CC2)Cc2ccco2)cc1C	11.9
COc1ccc(C(=O)NCCc2cnc[nH]2)cc1OC	-10.5
CN1C(=S)SC(/[N+]([O-])=C\c2ccco2)C1(C)C (stereo not drawn)	13.6
COc1cc(OC)c(C#N)c(S(=O)Cc2ccccc2)c1 (stereo not drawn)	20.4
Cc1ccc(S(=O)(=O)CCC(=O)O)cc1C	-2.0
O=C1CSC(c2c(F)cccc2Cl)N1c1cccc(F)c1 (stereo not drawn)	20.5
Cc1nnc(NCCc2ccccc2)[nH]c1=O	9.8
CCC(C)NC(=O)C1CCN(S(=O)(=O)c2ccc(OC)cc2)CC1 (stereo not drawn)	16.3
CN(Cc1ccccc1)S(=O)(=O)c1ccc(C(=O)Nc2nnc(C3CC3)o2)cc1	20.3
Cc1ccccc1NC(=O)/C=C/c1cccs1	18.1
Cc1nn(C)c(C)c1/C=C1/SC(=S)NC1=O	8.6
Cc1nc(SCC(=O)Nc2ccc(C)c(F)c2)c2oc3ccccc3c2n1	14.9
COc1ccc(NC(=O)CO/N=C/C(=O)Nc2ccccc2C)c([N+](=O)[O-])c1	16.3
Cn1c(=O)c2c(nc(Cc3ccc(N)cc3)n2C)n(C)c1=O	7.9
CCN(CC)CCNC(=O)c1ccc2c(c1)ncn2C1CCCCC1	0.5
COc1cccc(/C=N/NC(=O)c2c(-c3ccccc3)noc2C)c1	28.2
Cc1ccc(CN2CCN(C/C(Cl)=C/c3ccccc3)CC2CCO)o1 (stereo not drawn)	11.7
CCc1ccc(C2CC(=O)N(c3ccc(F)cc3)C3=C2C(=O)OC3)cc1 (stereo not drawn)	10.8
CC1CN(C)C(C)c2c1oc1ccc(N)cc21 (stereo not drawn)	3.3
CCCC(=O)N1c2ccc(-c3csc(N)n3)cc2CC1C (stereo not drawn)	20.5
NC(=O)c1ccc(C(F)(F)F)n(Cc2ccccc2Cl)c1=O	3.7
N#CC(c1ccc(=O)[nH]n1)c1ccc(Cl)cc1Cl (stereo not drawn)	6.6
COc1ccc(-c2csc3ncnc(N4CCN(S(=O)(=O)c5cccc(Br)c5)CC4)c23)cc1	10.3
CCOC(=O)c1cnc2ccc(C)cc2c1NCCN1CCOCC1	9.2
CCN(CC)C(=O)COC(=O)c1cc(-c2ccc(OC)cc2)nc2ccccc12	36.0
COc1ccccc1C(NC(=O)CC(C)C)c1c(O)ccc2ccccc12 (stereo not drawn)	-4.9
C[C@@H](C(=O)Nc1ccc2c(c1)OCCO2)n1c(=O)[nH]c2ccccc2c1=O	12.2
CCOC(=O)/C=C1\CC(=O)Nc2cc(C)c(C)cc2N1	-3.2
CC(C)(C)N1C(=O)c2ccc(C(=O)NCc3ccco3)cc2C1=O	19.0
CC(=O)CCC(=O)N1CCCC(CNC(=O)c2ccc(-c3ccccc3)cc2)C1 (stereo not drawn)	7.8
CSc1ccc(CNC(=O)C(C)n2nc(C)c3c(C)n(-c4ccccc4)nc3c2=O)cc1 (stereo not drawn)	18.7
CN1CCN(c2ccccc2NC(=O)c2ccc(-c3ccc(Cl)c(Cl)c3)o2)CC1	11.1
COc1cccc(NC(=O)CSCc2cc(=O)n3ccsc3n2)c1	9.9
Cn1cc(S(=O)(=O)Nc2ccc(Cl)cc2Cl)c(=O)n(C)c1=O	15.8
Cc1ccsc1/C=C1/C(=O)NN(c2ccccc2)C1=O	28.9
Cc1ccc(S(=O)(=O)c2ncccc2[N+](=O)[O-])cc1	28.4
CCOc1ccc(C(=O)NC(C)CCc2ccccc2)cc1 (stereo not drawn)	2.1
OC1C2(Cc3ccccc3)CN3CCN(C2)CC1(Cc1ccccc1)C3 (stereo not drawn)	20.9
CCCCN(CC)CCCNC(=O)CS(=O)(=O)Cc1nc(-c2cccc(OC)c2)oc1C	10.8
COc1cc(-c2nnc(COc3ccc(Cl)cc3C)o2)cc(OC)c1OC	27.9
COc1ccc(NC(=O)Cc2c(Sc3ccccc3)c3ccccc3n2C)cc1	9.5
COc1cccc(OCCNC(=O)c2ccc(C)cc2)c1	12.1
CCCN(C(=O)Cc1nc(N)n[nH]1)C1(C(=O)Nc2c(C)cccc2C)CCCCC1	8.9
CCc1ccc2oc(=O)cc(CN3CCN(CCO)CC3)c2c1	11.8
O=C(Nc1ccccc1N1CCOCC1)c1cc2ccccc2o1	14.9
CCn1nnnc1NC(=O)c1cc(OC)c(OC)c(OC)c1	10.6
CCOC(=O)c1ccc(-n2c(CCC(=O)O)ccc2-c2cccs2)cc1	19.9
CCc1cccc2c(C(=O)CN3C(=O)NC4(CCc5ccccc54)C3=O)c[nH]c12 (stereo not drawn)	2.2
Cc1ccc(C(=O)c2c3ccc(N)cc3nn2CCC(N)=O)cc1	-2.0
O=C(Cc1cccc2ccccc12)Nc1nnc(-c2cccc([N+](=O)[O-])c2)s1	12.0
C=C(C)CSc1nc2ncccc2[nH]1	34.2
Cn1c(=O)c2c(ncn2CC(=O)OCC(=O)NCc2ccc(Cl)cc2)n(C)c1=O	23.5
COc1ccc(N(C(=O)c2cccnc2)S(=O)(=O)c2ccc(OC)c(OC)c2)cc1	10.6
CC(C)CC(=O)NC(=S)Nc1ccccc1F	6.8
Cc1ccccc1N(CC(=O)Nc1ccccc1C(=O)O)S(C)(=O)=O	4.0
Cc1ccc(NC2=CC(=O)OC(C)C2)cc1 (stereo not drawn)	13.1

Entries above that contain a thiophene ring, fused or not (4):
smiles	OX1R FRET antag
Cc1ccccc1NC(=O)/C=C/c1cccs1	18.1
COc1ccc(-c2csc3ncnc(N4CCN(S(=O)(=O)c5cccc(Br)c5)CC4)c23)cc1	10.3
Cc1ccsc1/C=C1/C(=O)NN(c2ccccc2)C1=O	28.9
CCOC(=O)c1ccc(-n2c(CCC(=O)O)ccc2-c2cccs2)cc1	19.9

Further records.
smiles	OX1R FRET antag
CC1=CC(C)(C)N2C(=O)C3(C(C#N)=C(N)Oc4cc(C)oc(=O)c43)c3cccc1c32 (stereo not drawn)	35.9
O=C(O)COc1ccc(-c2nnn(Cc3ccccc3F)n2)cc1	1.6
CC(=O)Nc1ccc(N2CCC(C)CC2)c([N+](=O)[O-])c1	35.3
COc1cc(NC(=S)NC(C)(C)C)c(OC)cc1Cl	9.5
COCCN(C(=S)Nc1ccc(C)c(C)c1)C(C)c1ccco1 (stereo not drawn)	-1.2
Cc1cc(C)c(C#N)c(SCC(=O)C2CC2)n1	8.8
COc1cc2c(cc1NC(=O)c1ccc3c(c1)OCO3)oc1ccccc12	15.9
COc1ccc(OCCSc2ccc(S(=O)(=O)N3CCCC3)cn2)cc1	-4.2
COC(=O)c1ccc(CS(=O)(=O)c2ccc(C)cc2)cc1	9.6
O=C(/C=C/c1ccc(F)cc1)NCc1cccs1	13.5
O=C(CSc1cnc2ccccc2n1)c1ccc(F)cc1	20.7
O=C(CNS(=O)(=O)c1cccc(Cl)c1)OCc1csc(-c2ccccc2)n1	29.9
COc1cccc(Cn2cnc3c(N)c(C)c(C)cc32)c1	25.3
COc1cc(/C=C/C(=O)O)cc(S(=O)(=O)Nc2cc(Cl)c(Cl)cc2Cl)c1OC	14.9
CCOc1ccc(S(=O)(=O)N2CCN(S(=O)(=O)c3ccc(OCC)cc3)C(C)C2)cc1 (stereo not drawn)	12.2
COC(=O)C1=C(C)N(C)C(=O)/C1=C\c1ccco1	12.5
Cc1cc(C(F)F)n2nc(C(=O)Nc3ccccc3F)nc2n1	16.2
Cc1ccc(S(=O)(=O)N(C)C)cc1NC(=O)C1CCC1	15.0
Cc1ccc(C)c(COC(=O)c2cc([N+](=O)[O-])ccc2N2CCOCC2)c1	17.8
O=C(C1CCC1)N1CCc2cc(S(=O)(=O)NCCCN3CCCCC3)ccc21	3.0
CCOC(=O)C1CCCN(Cc2cc(Br)c(OC)cc2OC)C1 (stereo not drawn)	9.0
COc1ccc(CN(CC(=O)NCC2CCCO2)C(=O)CNS(=O)(=O)c2ccc(C)cc2)cc1 (stereo not drawn)	11.3
CCc1cc2c(-c3ccccc3)cc(=O)oc2cc1OC(=O)c1cccs1	13.7
COC(=O)c1c(N2C(=O)Nc3ccccc3N2O)sc(C)c1C	10.5
O=C(NC(=S)Nc1ccccc1O)c1cccnc1	-4.3
Nc1nnc(SCC(=O)c2ccc([N+](=O)[O-])cc2)s1	42.4
CCCn1nc(NS(=O)(=O)c2ccc(F)cc2)c2cc3ccccc3nc21	8.7
Cc1ccc(S(=O)(=O)N/N=C2\C(=O)C3(C)CCC2C3(C)C)cc1 (stereo not drawn)	1.8
CN(C)C(CNC(=O)/C=C/c1cccc(Cl)c1)c1ccccc1 (stereo not drawn)	20.1
CC(=O)Nc1ccc(NC(=O)c2ccccc2S(=O)(=O)c2ccccc2[N+](=O)[O-])cc1	16.8

More records
Compound	OX1R FRET antag
CCN1CCN(C(=O)c2ccc3c(=O)n(Cc4ccccc4OC)c(=S)[nH]c3c2)CC1	19.3
CC1(C)CC(=O)C2=C(C1)Nc1cc(Cl)ccc1S2	13.3
CCOCCCNC(=O)C(NC(=O)c1ccccn1)c1ccc(C)cc1 (stereo not drawn)	10.1
NC(=O)C1CCN(C(=O)/C=C/c2cccc(Br)c2)CC1	5.2
O=c1cc(-c2ccc(O)c(O)c2)oc2cc(O[C@@H]3O[C@H](CO)[C@@H](O)[C@H](O)[C@H]3O)cc(O)c12	11.4
CCOC(=O)c1c(OCCO)nn(-c2ccc(Cl)cc2)c1N	17.2
CCN1C(=O)C(CC(=O)NCCc2ccccc2)N(NC(=O)c2cccnc2)C1=S (stereo not drawn)	28.9
Cc1ccc(OCc2nnc(SCC(=O)c3cccs3)n2-c2ccccc2)cc1C	14.5
NC(=O)c1cc(-c2csc(-c3cccnc3)n2)ccc1O	10.7
CC(=O)Nc1ccc(/C(C)=N\NC(=O)c2ccc(-c3ccccc3)cc2)cc1	13.0
Nc1nc(N2CCN(C(=O)c3ccco3)CC2)nc2ccccc12	18.4
COC(=O)C(NC(C)=O)(Nc1ccc(C)cn1)C(F)(F)F (stereo not drawn)	-2.0
COc1cccc(-n2c(Cc3cc(=O)[nH]c(=O)[nH]3)nnc2SC(C)C)c1	6.8
COc1ccc(Cc2c(N)nc(C)nc2N)cc1	12.1
CCCCNC(=O)C1C2C=CC3(CN(Cc4ccccc4Cl)C(=O)C13)O2 (stereo not drawn)	6.8
Cn1c2c(c(=O)n(C)c1=O)C(C(F)(F)F)(C(F)(F)F)N=C(C1CCCCC1)N2	7.8
CCCCNC(=O)c1ccc2c(c1)N(CC)C(=O)c1ccccc1S2(=O)=O	16.9
CCN(CC(=O)NCc1ccc(F)cc1)C(=O)/C=C/c1cccs1	11.1
CCOC(=O)c1sc2nc(CSCC(=O)OCc3ccc(C(=O)OC)o3)[nH]c(=O)c2c1C	9.9
O=C(Nc1cccc(C(=O)O)c1)/C(=C\c1ccc2c(c1)OCO2)NC(=O)c1ccc(Br)o1	28.2
CCC(C)NC(=O)CNC(=S)N(Cc1ccccc1)Cc1cccnc1 (stereo not drawn)	6.4
N=c1ccn(Cc2cccc(Cl)c2)cc1	5.4
COc1ccc(CCNC(=O)C(=O)NCC2OCCN2S(=O)(=O)c2cccs2)cc1OC (stereo not drawn)	11.4
COc1cc(C)ccc1OCc1cc(C(=O)NCCN2CCOCC2)no1	4.9
Cc1ccc(NC(=O)CCC(=O)NNS(=O)(=O)c2ccccc2)c(C)c1	11.5

As entered above.
OX1R FRET antag, `CCOCCCNC(=O)C(NC(=O)c1ccccn1)c1ccc(C)cc1` (stereo not drawn) is entered as 10.1
OX1R FRET antag, `CCN1CCN(C(=O)c2ccc3c(=O)n(Cc4ccccc4OC)c(=S)[nH]c3c2)CC1` is entered as 19.3
OX1R FRET antag, `CCCCNC(=O)c1ccc2c(c1)N(CC)C(=O)c1ccccc1S2(=O)=O` is entered as 16.9
OX1R FRET antag, `Cc1ccc(NC(=O)CCC(=O)NNS(=O)(=O)c2ccccc2)c(C)c1` is entered as 11.5
OX1R FRET antag, `COc1ccc(Cc2c(N)nc(C)nc2N)cc1` is entered as 12.1
OX1R FRET antag, `NC(=O)C1CCN(C(=O)/C=C/c2cccc(Br)c2)CC1` is entered as 5.2

Remaining list, next part:
Compound	OX1R FRET antag
CCS(=O)(=O)c1ccc2oc(Nc3ccc(OC)cc3)nc2c1	27.0
COc1cccc2c1Oc1ncccc1N(C(=O)CCC(=O)NCc1ccc(C)cc1)C2	11.7
O=c1c(F)cn(C2CCCO2)c(=O)n1Cc1c(F)cccc1Cl (stereo not drawn)	13.4
Cc1cccc(Cn2c(CN3CCN(Cc4ccccc4)CC3)nc3c2c(=O)[nH]c(=O)n3C)c1	14.1
Cc1cccc(NC(=O)c2cnc3sccn3c2=O)n1	9.9
O=c1oc2ccccc2n1CSC1=NCCS1	-0.2
Cc1cccc(NC(=O)c2cc(N3C(=O)CCC3=O)ccc2Cl)n1	3.6
CCCn1c(=O)c(C(=O)Nc2ccccc2)c(O)c2ccccc21	4.2
COCCCNC(=S)N1CCN(S(=O)(=O)c2ccc(OC)cc2)CC1	22.4
COC(=O)CCCC(=O)Nc1ccc(Cl)c(Cl)c1	21.2
CN(CCOc1ccccc1)C(=O)c1ccc(Cl)c(S(=O)(=O)N2CCCCC2)c1	5.5
C#CCNC(=O)C1=C[C@H](c2ccc(Br)cc2)[C@@H](CCCO)[C@H](OCC)O1	10.4
COc1ccc(/C=N/n2nnnc2N)cc1OC	4.0
COc1ccc(/C=N/NS(C)(=O)=O)c(OC)c1	-2.9
O=C(OCC(=O)N1CCN(c2ccccc2)CC1)c1cccs1	11.0
CC1CCN(C(=O)c2ccc(CS(=O)(=O)Cc3ccccc3)cc2)CC1	15.3
CN1CC(=O)N(CC(=O)Nc2cc(Cl)cc(Cl)c2)C1=O	8.8
Cc1cc(C)n(C(C)n2nc(C)cc2C)n1	11.9
Cc1noc(C)c1C(=O)Nc1ccc(F)cc1	9.4
